VDR inhibitor: blocks the human vitamin D receptor | 400,000 tested, 0.93% active | AID 504847 | Potency, µM, inactives show max response, negative = inhibition, usual class: inhibitors | VDR-SRC2-3 peptide fluorescence polarization, 2 h | P11473; active = well fitted inhibition curve with a large enough effect; inconclusive = small, poorly fitted or top-dose-only effect, or another doubt; inactive = no such curve, though single readings can be large or run the other way; also: series mostly up to about 120 µM
Target sequence (P11473 whole entry, looked up): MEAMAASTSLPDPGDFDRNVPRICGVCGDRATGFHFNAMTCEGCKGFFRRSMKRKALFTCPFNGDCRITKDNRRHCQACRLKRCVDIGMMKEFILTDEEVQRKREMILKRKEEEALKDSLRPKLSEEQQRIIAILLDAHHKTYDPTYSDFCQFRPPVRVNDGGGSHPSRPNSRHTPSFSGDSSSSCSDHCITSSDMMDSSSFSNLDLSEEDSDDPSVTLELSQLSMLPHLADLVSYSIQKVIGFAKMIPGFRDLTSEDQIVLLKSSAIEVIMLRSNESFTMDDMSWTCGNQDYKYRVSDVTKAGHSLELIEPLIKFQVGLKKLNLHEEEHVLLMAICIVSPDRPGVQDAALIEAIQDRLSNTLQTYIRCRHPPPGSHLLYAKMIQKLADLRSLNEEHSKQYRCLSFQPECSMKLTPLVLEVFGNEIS
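Inhibition of the VDR/SRC2-3 peptide interaction is quantified by fluorescence polarization. Compounds (23 nl, pintool) incubate with the reagents for 2 hours at ambient room temperature.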
The depositor's hits bear a star; ? = inconclusive; & = joins results of further samples; [ ] = dose if it differs, or a comment. % is scaled to controls: 0 for no effect and ±100 for the full control effect; potency is read from the fitted curve at half-maximal effect. A portion of the library; the hit share may differ from the screen's.

SMILES	VDR inhibitor
Cc1c(C)n(CC(O)CN(CCO)CCO)c2ccccc12 (configuration not stated)	3%
Cc1ccc(C)c(N(CC(=O)Nc2ccc(-c3nc4ccc(C)cc4s3)cc2)S(C)(=O)=O)c1	6%
Cn1nc(C(F)(F)F)c(C#N)c1N1CCN(c2ccccc2F)CC1	5%
O=C(O)Cc1ccc(O)c(O)c1	-2%&-19%
CC(C)(C)NC(=O)CN(C(=O)CS(=O)CC(=O)Nc1ccc(F)cc1)c1ccccc1 (configuration not stated)	17%
O=C(CN(Cc1ccccc1Cl)C(=O)c1csnn1)NCc1ccccc1	9%
CCC(C)COC(=O)C(C#N)c1nc2ccccc2nc1N1CCCCC1 (configuration not stated)	5%
COc1cccc(NC(=O)c2ccc3nsnc3c2)c1	-5%
COC(=O)[C@]1(C)N[C@H](c2ccc(-c3cccc(Cl)c3)c(OC)c2)[C@@H]2C(=O)N(C)C(=O)[C@@H]21	-24%
CN1CCN(c2ccc(S(=O)(=O)N3CCCCC3)cc2NC(=O)CCc2ccccc2)CC1	10%
COc1ccc(OC)c(NC(=O)CN(c2ccc(C(C)C)cc2)S(=O)(=O)c2c(C)noc2C)c1	0%
C=CCn1c(CSCc2ccc(F)cc2)n[nH]c1=S	-9%
Cc1ccc(NC(=O)C2CC2c2ccccc2)cc1 (configuration not stated)	2%
O=c1c2ccccc2nc(-c2ccccc2)n1CCCn1ccnc1	0%
CCOc1ccc(-c2csc3ncn(-c4ccc(OC)cc4)c(=O)c23)cc1	-2%
Cn1ccc2cc(S(=O)(=O)N3CCN(C(=O)Nc4ccccc4F)CC3)ccc21	-1%
C=CCOc1ccc(/C=C/C(=O)N2CCCN(S(=O)(=O)c3c(C)noc3C)CC2)cc1	-9%
COc1ccc(NC2CC(=O)N(c3ccc(C(=O)O)cc3)C2=O)cc1 (configuration not stated)	21%
C=C1CCN([C@H](C(=O)NCc2ccco2)C(C)C)S(=O)(=O)c2ccccc21	-5%
CC(C)[C@H](NC(=O)c1ccco1)C(=O)Nc1ccc(OC(F)F)cc1	5%
CCOC(=O)N1CCN(S(=O)(=O)c2ccc(C(=O)Nc3nnc(CC)o3)cc2)CC1	-6%
O=C(NCc1ccccc1Cl)c1cnc(N2CCOCC2)c2ccccc12	-4%
O=C(Nc1cccc(-c2ccc(F)cc2)c1)C1CCCN(Cc2cccnc2)C1 (configuration not stated)	1%
O=C(Nc1ccc(N2CCCCCC2)cc1)c1ccccc1Cl	1%
Cc1ccc2cc(C#N)c(N3CCCC3)nc2c1C	-1%
CC(C)[C@H](N)c1nnc(SC/C=C/c2ccccc2)o1	3%
CC(C)(C)N(Cc1ccccc1)C(=O)COC(=O)CNS(=O)(=O)c1ccc2ccccc2c1	7%
Cc1cccc(Oc2sc(C(=O)c3ccccc3)c(N)c2C#N)c1C	-5%
CCn1c(SCC(=O)NC2CCCCC2)nnc1C(C)NC(=O)c1ccccc1F (configuration not stated)	-12%
CN(C)c1ccc(-c2ccc3ncnc(N(C)C)c3c2)cc1	-28%

Sorted by count of non-hydrogen atoms (descending): some entries from above
SMILES	VDR inhibitor
Cc1ccc(C)c(N(CC(=O)Nc2ccc(-c3nc4ccc(C)cc4s3)cc2)S(C)(=O)=O)c1	6%
O=C(CN(Cc1ccccc1Cl)C(=O)c1csnn1)NCc1ccccc1	9%
Cn1nc(C(F)(F)F)c(C#N)c1N1CCN(c2ccccc2F)CC1	5%
COc1cccc(NC(=O)c2ccc3nsnc3c2)c1	-5%

The listing continues.
SMILES	VDR inhibitor
Cc1ccc(C(=O)CNc2ccc(F)cc2)cc1	-2%
CCOC(=O)c1sc(NCCNc2nc(C)c(C(=O)OCC)s2)nc1C	-13%
S=C(NC1CC1)N1CCCc2ccccc21	9%
O=C(c1ccc(Cn2cc(Br)cn2)o1)n1cccn1	14%
CCCCC1=CC2=C(OC(C)=O)C(=O)C(C)(OC(=O)CC)C(=O)C2=CO1 (configuration not stated)	?
Cc1ccc(OS(=O)(=O)c2ccc(N3C(=O)CCC3=O)cc2)cc1	-9%
Cc1ccc(NC(=O)CSc2ncc3ccccn23)cc1	-4%
CCCCn1c(N)c(N(CC(C)C)C(=O)c2cc3ccccc3cc2OC)c(=O)[nH]c1=O	11%
Cc1cccc(NC(=S)Nc2ccccn2)c1	6%
Cc1ccc(-c2nnc(SCC(=O)NC3CC3)n2N)cc1	-8%
COc1ccc(N2CCN(C(=O)C(=O)c3c[nH]c4ccccc34)CC2)cc1	4%
Cn1c(CCN2CCCC2)nc2cc(NS(=O)(=O)c3ccc(Cl)cc3)ccc21	-6%
O=C(COC(=O)CCS(=O)(=O)c1ccc(Cl)cc1)NC1CCCCC1	3%
Cc1ccc(-c2nn3c(=O)cc(CN4CCN(C(=O)Nc5cccc(C(F)(F)F)c5)CC4)nc3s2)cc1	0%
COCCN(CCOC)c1nc(-c2ccc([N+](=O)[O-])cc2)nc2ccccc12	3%
Cc1cc(C)n(-c2nc(SCC(=O)N3CCCC3)c3c4c(sc3n2)CCCC4)n1	-7%
Clc1cccc(C=NC=Nc2cccc(Cl)c2)c1	-6%
CNS(=O)(=O)c1cccc(C(=O)OCc2cc(=O)oc3c(C)c(O)ccc23)c1	2%
CC(OC(=O)c1ccc(Cl)nc1)C(=O)NC1(C#N)CCCCC1 (configuration not stated)	-9%
COCCNc1ncnc2ccc(-c3ccccc3C)cc12	?
O=C(CCNS(=O)(=O)c1ccccc1C(F)(F)F)NCCCN1CCOCC1	-4%
O=C(O)c1ccc(N/N=C/c2cccc(F)c2)cc1	-12%
CN(C)S(=O)(=O)N1CCC(Oc2ccc(C(=O)NCc3cnn(C)c3)cc2)CC1	16%
C#CCn1c(S(=O)(=O)Cc2ccc(C)cc2)nc(-c2ccccc2)c1-c1ccccc1	2%&-3%
COc1ccc(N2CC(C(=O)NCc3cccnc3)CC2=O)cc1 (configuration not stated)	17%
COc1ccc(-c2csc(C3=C(O)CN(CCCN4CCCC4=O)C3=N)n2)cc1OC	-1%
Cc1ccc(-c2nc(C)sc2CC(=O)O)cc1	-2%
O=C(Oc1cccc(C(=S)N2CCOCC2)c1)c1ccc([N+](=O)[O-])cc1[N+](=O)[O-]	5%
Clc1ccc(Cn2nc(-c3ccccc3)nc2-c2ccccc2)cc1	-29%
COc1ccc(C(=O)COC(=O)c2nc3nccc(C)n3n2)cc1F	-8%
CCOC(=O)c1c(S(=O)(=O)Nc2ccc(F)cc2C)c(C)n(C)c1C	0%
Cn1c(SCC(=O)NCC2CCCO2)ncc(C(=O)Nc2ccccc2)c1=O (configuration not stated)	-12%
Cc1cc(C)cc(OCCSc2nc3ccc(NC(=O)c4ccc5c(c4)OCO5)cc3s2)c1	0%
CCCCC[C@H](O)/C=C/[C@H]1OC(=O)C[C@H](O)[C@@H]1C/C=C\CCCC(=O)O	2%
CCC(C(=O)N1CCN(c2cc(C)ccc2C)CC1)n1nc(C)n2c(cc3occc32)c1=O (configuration not stated)	-1%
COCCCn1c(=S)[nH]c2sc3c(c2c1=O)CCCC3	-19%
O=C(C=Cc1ccccc1)c1cccs1	56µM*
CCOC(=O)c1ccccc1NC(=O)c1cccc([N+](=O)[O-])c1	1%
CCOC(=O)c1ccc(CNC(=O)C2CCC(=O)N(CCc3ccccc3)C2)o1 (configuration not stated)	-2%
COc1ccc(CCNC(=O)C(=O)NCC2OCCN2S(=O)(=O)c2ccc3c(c2)OCCO3)cc1OC (configuration not stated)	-16%
Cc1nc(N2CCCC2)c2c(C(=O)N3CCN(c4ccc(F)cc4)CC3)c(C)oc2n1	-10%
COc1cc(/C=C/C(=O)O)cc(S(=O)(=O)Nc2ccc3cn[nH]c3c2)c1OC	-9%
COc1cccc(C(O)c2cnc(C(C)C)n2C)c1OC (configuration not stated)	-5%
Cc1onc(-c2ccccc2)c1CNS(=O)(=O)c1ccccc1	31%[activator]
CC(=O)c1n[nH]nc1NC(=O)c1ccccc1	23%
Cc1ccc(O)c(C(=O)CC(=O)c2ccccc2Cl)c1	-1%
COc1ccc(CCC(=O)Nc2ccc(C)c([N+](=O)[O-])c2)cc1	-19%
CCN(CC)c1ccc(/C=N/O)cc1	-23%
COc1ccc(-c2noc(CCC(=O)Nc3ccccc3Cl)n2)cc1OC	12%
CN(c1ccc(C(=O)Nc2ccccc2C(=O)N2CCOCC2)cc1)S(C)(=O)=O	1%
C#CCCCc1nc2ccccc2c(=O)n1N	-11%
O=C(O)c1ccc(Oc2c(C(F)(F)F)oc3cc(O)ccc3c2=O)cc1	-8%
CCn1cc(C(=O)N2CCCC(N3CCN(c4cccc(C(F)(F)F)c4)CC3)C2)cn1 (configuration not stated)	-1%
COc1ccc2oc(=O)c(-c3nc4ccc(C)cc4[nH]3)cc2c1	3%
O=C(NC1CCCCCCC1)c1ccc2c(c1)N(Cc1ccc(F)cc1)C(=O)CS2=O (configuration not stated)	20%
CCc1ccc(S(=O)(=O)NCc2csc(-c3ccccc3)n2)s1	19%
COc1ccc(N(Cc2cc3cccc(C)c3[nH]c2=O)S(=O)(=O)c2ccc(OC)cc2)cc1	4%
Cc1ccc(S(=O)(=O)CCc2nnc(NC(=O)c3ccco3)s2)cc1	7%
COC(=O)c1ccc(NC(=O)Cn2nc(C)cc2C)cc1	-7%
CCN(CC)c1ccc(/C=N/NC(=S)NC)c(O)c1	-20%

Later entries
SMILES	VDR inhibitor
CC12CC3(C)CC(C)(C1)CC(C(=O)NCCc1ccc(S(N)(=O)=O)cc1)(C2)C3	5%
O=C1CCc2cc(S(=O)(=O)N3CCC(C(=O)NCc4ccccc4Cl)CC3)ccc2N1	6%
O=C(Cc1ccc(-n2cccc2)cc1)NCc1cccs1	8%
CC1(C)CC(Nc2ccc(C(F)(F)F)cc2[N+](=O)[O-])CC(C)(C)N1	-8%
Cc1ccc(N2N=C(c3ccc(Br)cc3)CCC2=O)cc1	-2%
Cc1ccc(CNC(=O)CS(=O)CC(=O)O)cc1 (configuration not stated)	7%
Cc1csc(SCC(=O)NC(=O)C2CCCCC2)n1	-26%
COc1ccc(Cc2noc(-c3ccccc3)n2)cc1OC	10%
Cc1ccc(S(=O)(=O)N(CC(=O)N2CCC(C)CC2)c2cccc(C)c2)cc1	-15%
Cc1ccc(C(=O)NNC(=O)c2ccncc2)cc1S(=O)(=O)N1CCCCC1	-23%
COc1ccc(CCNC(=O)CCCn2c(=O)[nH]c3cc(OC)c(OC)cc3c2=O)cc1OC	13%
O=C1[C@@H]2[C@@H]3C[C@@H]([C@H]4ON=C(c5ccc(Cl)cc5Cl)[C@@H]34)[C@@H]2C(=O)N1C1CCCCC1	-16%
O=C1C=CC(=Nc2ccc3c(c2)Cc2cc(F)ccc2-3)O1	56µM*
CCOC(=O)c1oc2cc(C)cc(O)c2c(=O)c1-c1csc(C)n1	-12%
Cc1ccc(S(=O)(=O)/N=C(\CN2CCCCC2)N2CCOCC2)cc1	12%
Clc1c(CSc2nc3ccccc3o2)nc2ccccn12	5%
CCC1=C(OC(=O)N(CC)CC)N2C(=O)OC(=NCC(=O)OC)[C@]2(C)[C@H]2C1=CC[C@H]1C(=O)N(CC)C(=O)[C@H]12	5%
O=C(Nc1ccc(F)cc1F)c1cncc(Br)c1	12%
CCOc1ccc2[nH]c3c(N4CCc5ccccc5C4)ncnc3c2c1	-8%
CC(C)c1ccc(OCc2cccc(C(=O)N/N=C/c3cccnc3)c2)cc1	-16%
CC(=O)Oc1ccc(C(=O)N2c3ccccc3NC(=O)C2C)cc1 (configuration not stated)	2%
O=C(COc1ccc(C(=S)N2CCOCC2)cc1)N1CCOCC1	-8%
O=c1c2ccccc2oc2ncccc12	-2%
O=C(Nc1ccc(F)cc1)c1ccc2nsnc2c1	2%
Cc1ccc(C(C)C)c(OCC(O)CN2CCN(CCO)CC2)c1 (configuration not stated)	-7%
CCOc1cc(-c2ccc(OC(=O)c3ccccc3Cl)c(OC)c2)cc(=O)c2c(C)oc(C)c12	-3%
CC(C)(C)NC(=O)COC(=O)c1ccc(Cl)nc1	0%
O=C(O)C1=C[C@@H](C2CCCCC2)C[C@@H](OCCCCO)O1	-7%
Cc1ccccc1NC(=O)Cn1c(O)c(N=NC(=O)c2ccccc2O)c2ccccc21	-2%
O=C(Cc1ccc(F)cc1)N1CCC2(CC1)NCCc1[nH]cnc12	-5%
CN(C(=O)c1ccccc1)c1ccccc1C(=O)NCCc1ccccc1	0%
COc1cc(CN2CCC(Cc3ccccc3)CC2)c([N+](=O)[O-])cc1OC	-13%
COc1ccccc1N1CCN(S(=O)(=O)c2ccc(-n3cnnn3)c(C)c2)CC1	-9%
CCOc1cccc(C2C(C(=O)c3ccco3)=C(O)C(=O)N2c2nnc(C)s2)c1 (configuration not stated)	1%
Cc1ccc(Cl)cc1NC(=S)Nn1cnnc1	79µM*
Nc1c(N(CCC2=CCCCC2)C(=O)c2ccc([N+](=O)[O-])o2)c(=O)[nH]c(=O)n1Cc1ccccc1	3%
COc1ccc(-c2cc(C(=O)N/N=C(\C)c3cccnc3)c3cc(C)ccc3n2)cc1OC	-6%
CC(C)(C)C(=O)Nc1ccnn1C1CCN(C(=O)c2ccc(Cl)cc2F)CC1	-15%

3 entries already listed, ordered by their value in VDR inhibitor, low to high:
Structure,VDR inhibitor
Cc1ccc(O)c(C(=O)CC(=O)c2ccccc2Cl)c1,-1%
O=C(Nc1ccc(N2CCCCCC2)cc1)c1ccccc1Cl,1%
O=C(Oc1cccc(C(=S)N2CCOCC2)c1)c1ccc([N+](=O)[O-])cc1[N+](=O)[O-],5%

Source: PubChem BioAssay
